RE007 growth inh: qHTS Assay for Inhibitors of the HIV-1 protein Vpr | Potency, µM (top dose mostly 92.2 µM), without a hit: at the top dose activity change, negative = less growth | actives 0.21% (n = 360,000) | S. pombe RE007 Vpr strain, BacTiter-Glo ATP luminescence, 24 h; control for the full effect not named in the record | AID 651644, 2012; active = well fitted falling curve with a large enough effect; inconclusive = small, poorly fitted or top-dose-only effect; inactive = no such curve, though single readings can be large or run the other way;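 note: % is set by controls: 0 for no effect and ±100 for the full control effect; nearly all actives have a fitted effect of over 50% in size; the assay follows cell death caused by Vpr and the record does not say whether a fall means rescue or toxicity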
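Fission yeast RE007 carrying one integrated HIV-1 vpr copy, seeded at OD 0.01 in PMG+AL medium with 23 nL pinned compound. Grown 24 h at 30 degrees; viability read by BacTiter-Glo luminescence after 5 min.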
2A StopGo: High Throughput Screening for Foot and Mouth Disease Virus Antivirals. AID 1159524, 2015. Potency, µM (highest dose often 57.9 µM), for the others: at the highest dose signal change, negative = less light. human cells with a luciferase reporter of 2A StopGo recoding; control for the full effect not named in the record. actives 1.2% (n = 410,000); active = well fitted falling curve with a large enough effect; inconclusive = small, poorly fitted or top-dose-only effect; inactive = no such curve, though single readings can be large or run the other way; tested in HEK293T cells; note: % is set by controls: 0 for no effect and ±100 for the full control effect; nearly all actives have a fitted effect of over 45% in size; luciferase light after 4 h
LASV entry inh: qHTS for Inhibitors of binding or entry into cells for Lassa Virus. Lassa virus pseudotype entry inhibition, cell reporter; control for the full effect not named in the record. Potency, µM (titrated, usually from 37.9 µM), for inactives: top-dose activity change, negative = inhibition, most hits filed as inhibitors. actives 1.2% (n = 300,000). AID 540256, 2011; active means well fitted inhibition curve with a large enough effect; inconclusive means small, poorly fitted or top-dose-only effect, or effect the other way; inactive means flat fitted curve, though single readings scatter; tested in HEK293 cells; note: % is set by controls: 0 for no effect and ±100 for the full control effect; nearly all actives have a fitted effect of over 50% in size; luciferase read-out
NS1 function inh: qHTS Assay for Inhibitors of Influenza NS1 Protein Function. actives 0.4% (n = 270,000). S. cerevisiae slowed by influenza A NS1, growth recovery by OD600. AID 2326, 2010. Potency, µM (titrated, usually from 46.1 µM), without a hit: at the top dose activity, positive = more growth; active means well fitted rising curve with a large enough effect; inconclusive means small, poorly fitted or top-dose-only effect; inactive means no such curve, though single readings can be large or run the other way; note: nearly all actives have a fitted effect of over 50% in size
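Read-out: OD600 growth recovery of NS1-expressing budding yeast. Cells grown overnight at 30C in -URA glucose medium, washed, resuspended and diluted 1:100 in 2% galactose assay medium, pH 6.0. Same strain lacking NS1 served as positive control.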
MARV entry inh: qHTS for inhibitors of binding or entry into cells for Marburg Virus; Marburg virus pseudotyped entry inhibition, cell reporter; control for the full effect not named in the record; about a third of the inactives were read at about 46 µM; Potency, µM (series often up to 37.8 µM), without a hit: at the highest dose activity change, negative = inhibition, most hits filed as inhibitors; actives 1.8% (n = 300,000); active = well fitted inhibition curve with a large enough effect; inconclusive = small, poorly fitted or top-dose-only effect, or effect the other way; inactive = flat fitted curve, though single readings scatter; tested in HEK293 cells; about a fifth of its hits are not listed in these tables; note: % is set by controls: 0 for no effect and ±100 for the full control effect; luciferase read-out
Cruzain Triton: qHTS Assay for Promiscuous and Specific Inhibitors of Cruzain (with detergent) | Cruzipain (Trypanosoma cruzi), P25779 | purified cruzain, Z-FR-AMC fluorescence, 0.01% Triton | Potency, µM, for inactives: max response, negative = inhibition, hits mostly inhibitors | actives 0.43% (n = 200,000) | AID 1478, 2009;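 note: plate controls were neutral wells for no effect and buffer without enzyme for full effect; nearly all actives have a fitted effect of over 40% in size; top concentration of the series not given in the record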
Target sequence (P25779 123-467 limits assumed): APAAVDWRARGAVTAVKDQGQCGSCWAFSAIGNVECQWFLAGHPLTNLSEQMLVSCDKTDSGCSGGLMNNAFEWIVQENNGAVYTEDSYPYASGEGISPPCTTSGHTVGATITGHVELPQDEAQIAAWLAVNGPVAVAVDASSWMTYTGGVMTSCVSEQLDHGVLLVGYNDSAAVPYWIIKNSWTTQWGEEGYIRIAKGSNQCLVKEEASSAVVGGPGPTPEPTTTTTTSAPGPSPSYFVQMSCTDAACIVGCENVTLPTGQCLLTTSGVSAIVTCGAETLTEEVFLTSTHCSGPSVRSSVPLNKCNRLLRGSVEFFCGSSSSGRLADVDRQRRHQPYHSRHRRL
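Detergent-containing arm of a paired screen for aggregation-based inhibition: 0.01% Triton X-100 present. Cruzain at 1.5 nM cleaved 2 uM Z-FR-AMC at pH 5.5 with 5 mM DTT; AMC fluorescence gain over 60 s measured activity.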
SARS PLP yeast: qHTS of Yeast-based Assay for SARS-CoV PLP. S. cerevisiae expressing SARS-CoV PLpro, growth rescue; control for the full effect not named in the record. Potency, µM (titrated, usually from 32.9 µM), for inactives: at the top dose activity, positive = growth rescue. actives 0.19% (n = 330,000). AID 485353, 2010; active means well fitted rising curve with a large enough effect; inconclusive means small, poorly fitted or top-dose-only effect; inactive means no such curve, though single readings can be large or run the other way; note: 0% is about no effect; nearly all actives have a fitted effect of over 55% in size; growth read by luminescence after 48 h
Cruzain inh noDet: qHTS Assay for Promiscuous and Specific Inhibitors of Cruzain (without detergent). purified cruzain, Z-FR-AMC fluorescence, no detergent. actives 2.3% (n = 200,000). Cruzipain (Trypanosoma cruzi), P25779. Potency, µM, for inactives: max response, negative = inhibition, hits mostly inhibitors;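 note: plate controls were enzyme without inhibitor for no effect and buffer without enzyme for full effect; nearly all actives have a fitted effect of over 40% in size; top concentration of the series not given in the record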
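Purified cruzain at 1.5 nM, pre-incubated 15 min with compound at room temperature in 100 mM sodium acetate pH 5.5, 5 mM DTT, 0.00005% Triton X-100. Reaction started with 2 uM Z-FR-AMC; AMC fluorescence increase over 60 s gives rate.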
Active calls of the source: *; ? = inconclusive; nt = not tested or not shown; & = joins results of further samples; [ ] = dose if it differs, or a comment. Unless noted, calls come from the whole dose curve; as a rule, active = well fitted curve in the direction sought with a large enough effect; inconclusive = small, poorly fitted or top-dose-only effect, or another doubt; inactive = no such curve, though single readings can be large; an effect the other way counts as inactive or inconclusive. Potency is the fitted concentration of half-maximal effect.

Below each compound: RE007 growth inh	2A StopGo	LASV entry inh	NS1 function inh	MARV entry inh	Cruzain Triton	SARS PLP yeast	Cruzain inh noDet
N#CC1=C(S)N(c2ccccc2)C(c2ccc(-c3cccc(Cl)c3)o2)NC1=O (centres undefined)
  -2.3%	-3.4%	-3.6%	12.8%	29.0%	?	5.3%	9.3%
CSc1nc2c(c(=O)n1Cc1ccccc1)SC(C)C2 (centres undefined)
  14.5%	nt	9.5%	-45.7%	-14.6%	-1.8%	-7.2%	-3.5%
C=CCNC(=O)CN1CCN(Cc2ccc3c(c2)OCO3)CC1
  6.4%	-9.0%	nt	2.3%	nt	nt	-2.6%	nt
Cn1nc(C(C)(C)C)c([N+](=O)[O-])c1C(=O)N1CCCCCC1
  6.1%	-18.2%	nt	6.9%	nt	nt	1.7%	nt
CCC(=O)N1CCc2cc(S(=O)(=O)NC(CC(C)C)C(=O)NCc3cccc(OC)c3)ccc21 (centres undefined)
  nt	-3.7%	-2.6%[46.1 µM]	nt	-17.9%[46.1 µM]	-4.3%	nt	17.0%
COc1ccc(CCNC(=O)CCn2c(=O)c3cccn3c3cccnc32)c(OC)c1OC
  nt	-3.2%	13.6%[46.1 µM]	nt	nt	-1.0%	nt	-0.6%
CC(=O)c1c(N)nc2n(c1=O)CCCCC2
  21.6%	0.0%	1.9%	4.9%	14.2%&14.2%	2.1%	-4.6%	17.7%
Nc1c(C(=O)N/N=C/c2ccc([N+](=O)[O-])cc2)cnn1-c1ccccc1
  -2.7%	8.3%	-0.1%[46.1 µM]	3.9%	11.7%[46.1 µM]	nt	-1.2%	nt
Cc1ccc2c(c1)[C@H]1OCC[C@H]1[C@@H](c1ccncc1)N2
  4.5%	0.0%	nt	4.4%	nt	5.7%	3.3%	-3.8%
O=C1c2cc([N+](=O)[O-])ccc2-c2cc(Cl)c(NC(=O)C(F)(F)F)cc21
  -23.8%	-10.3%	-0.9%[46.1 µM]	nt	-29.4%	nt	nt	nt
Cc1ccc2oc(C(=O)NCC(c3ccco3)N(C)C)c(C)c2c1 (centres undefined)
  -5.1%	0.9%	nt	-5.8%	nt	nt	2.2%	nt
CCOC(=O)C(NCc1ccccc1OC)(NC(=O)c1ccccc1)C(F)(F)F (centres undefined)
  27.1%	13.0%	-68.7%	3.3%	-2.1%	1.5%	1.1%	-0.7%
O=C(OCn1ncc(Br)c(Br)c1=O)c1c(F)cccc1F
  nt	nt	nt	-135.2%	5.2%	-30.0%	-16.0%	-11.4%
CC1(C(=O)CSc2nc3ccccc3s2)CCC(=O)O1 (centres undefined)
  11.2%	48.2%[activator]	6.1%	5.5%	28.2%	0.2%	-5.9%	5.4%
Cc1cc(C)c(NC(=O)CN(c2ccccc2)S(=O)(=O)N(C)C)c(C)c1
  -4.6%	-3.6%&5.9%	-5.5%[46.1 µM]	11.2%	1.4%[46.1 µM]	-2.1%&0.1%	-13.3%	16.1%&-2.7%
O=C(NCc1ccccn1)c1cc(-c2ccc(Cl)cc2)nc2ccccc12
  6.0%	1.6%	-5.2%	-9.8%	?	-4.6%	-47.7%	25.1%
O=C(Nc1ccccc1O)C(c1ccccc1)c1ccccc1
  0.1%	?	-28.7%[46.1 µM]	-1.3%	?	nt	-1.9%	nt
O=c1cc(N2CCc3ccccc3C2)[nH]c(=O)n1Cc1ccc(F)cc1
  5.5%	3.0%	-28.6%	5.6%	-4.6%	1.0%	12.6%	?
CCCCc1ccc(-n2nc3ccc(NC(=O)c4cc5ccccc5o4)cc3n2)cc1
  nt	25.1µM*	1.3%[46.1 µM]	nt	nt	-0.5%	nt	2.8%
Cc1nc2ccccc2n1CCc1nc2c3ccccc3nc(SCC#N)n2n1
  nt	nt	nt	-5.9%	nt	4.5%	3.7%	-9.4%
CC(=O)c1ccc(OCCCC(=O)OCC(=O)N2CCN(c3ccccc3)CC2)cc1
  8.9%	-19.5%	12.8%	-11.5%	-0.6%	-9.8%	-3.0%	5.7%
Cc1ccc(S(=O)(=O)N(C)C)cc1NC(=O)Cn1c(CN2CCOCC2)nc2ccccc2c1=O
  -6.0%	-4.8%	nt	-1.5%	nt	nt	3.0%	nt
Cc1nc(Cl)cc(N/N=C/c2ccc(O)cc2O)n1
  1.1%	-13.1%	?	0.0%	?	nt	-4.7%	nt
Cc1ccccc1N1C(=O)C2C3CCC(O3)C2C1=O (centres undefined)
  -4.8%	-10.8%	11.3%	-0.9%	-10.2%	nt	-0.9%	nt
CC(CNC(=O)Cn1ccc2cc(S(=O)(=O)N3CCCC3)ccc21)c1ccccc1 (centres undefined)
  -5.7%	-13.9%	?	1.2%	?	nt	0.8%	nt
COc1cc(C2CC(=O)c3c(ccc4ccccc34)N2)ccc1O (centres undefined)
  3.0%	?	-4.7%	13.5%	21.1%	-4.9%	-3.3%	20.6%
COc1ccc(/C=C2/C(=N)N3N=C(CC(=O)N4CCCC4)SC3=NC2=O)cc1OC
  10.7%	-1.7%	19.0%[46.1 µM]	5.4%	0.9%[46.1 µM]	nt	-16.2%	nt
CC1CCCN(c2nc3c(S(=O)(=O)c4ccc(C(C)C)cc4)nnn3c3ccsc23)C1 (centres undefined)
  nt	-17.5%	6.9%[46.1 µM]	nt	nt	0.1%	nt	-1.1%
CC1=C(C(=O)Nc2cccnc2)C(c2ccc(F)cc2)n2nc(SCc3ccccc3)nc2N1 (centres undefined)
  nt	-19.7%	0.6%[46.1 µM]	nt	20.3%[46.1 µM]	0.4%	nt	4.5%
Fc1cccc(NC(=S)N2CCN(c3ccccn3)CC2)c1
  -2.8%	-2.8%	12.6µM*	-16.5%	-6.8%	nt	4.5%	nt
COc1ccccc1NS(=O)(=O)c1cc(NC(=O)CN2C(=O)NC3(CCCC3)C2=O)ccc1C
  -2.9%	-5.6%	-14.3%[46.1 µM]	nt	?	nt	2.3%	nt
O=C(c1ccco1)n1nc(-c2ccccc2)nc1NCc1ccc(Cl)cc1
  nt	1.2%	14.0%[46.1 µM]	nt	-4.3%[46.1 µM]	-1.8%	nt	16.5%
COc1ccc(SCCc2ccncc2)cc1
  3.1%	-18.3%	1.8%	3.9%	27.6%[46.1 µM]	nt	0.6%	nt
CCCOc1ccc2cc(-c3ccccn3)c(=O)oc2c1
  ?	10µM*	2.82µM*	-7.9%	1.78µM*	-13.8%	-33.1%	?
Cc1ccc(NC(=O)NCC2CC2(Cl)Cl)cc1 (centres undefined)
  -6.9%	44.7%[activator]	?	-18.6%	3.2%[46.1 µM]	nt	-8.7%	nt
CCOc1ccc(C(=O)NC2CCN(C(=O)N3CCCC3)CC2)cc1
  -11.7%	-15.0%	1.8%	9.8%	-6.8%	0.5%	-0.4%	-10.7%
COc1ccc(C)cc1NC(=O)c1cccc(C(=O)Nc2cc(C)ccc2OC)c1
  -7.5%	-18.0%	nt	11.1%	nt	nt	10.8%	nt
Cc1ccc(OCCOc2ccc(Cl)cc2Cl)c([N+](=O)[O-])n1
  -0.3%	-2.9%	11.3%	-5.1%	6.9%	-6.9%	-5.0%	1.6%
COc1ccc(CCN2C(=O)C(Oc3ccccc3C)C2c2ccc3c(c2)OCO3)cc1 (centres undefined)
  9.9%	1.8%	?	-3.2%	?	14.5%	-12.1%	-12.0%
Cn1c(=O)c(=O)n(C)c2cc(S(=O)(=O)N3CCC(Cc4ccccc4)CC3)ccc21
  -0.2%	-12.2%	12.7%	-4.8%	18.9%	15.7%	0.2%	10.4%
COc1ccc(F)c(CN2CCN(CCc3ccccc3)C(CCO)C2)c1 (centres undefined)
  -14.8%	-23.5%	-1.4%	9.7%	13.2%	nt	-1.2%	nt
c1ccc(NCc2ccncc2)cc1
  7.6%	-5.6%	nt	6.8%	nt	nt	4.4%	nt
CC(C)C(=O)N1CCN(c2ccccc2NC(=S)NC(=O)c2ccco2)CC1
  -1.9%	-18.5%	8.6%	nt	-20.0%	nt	nt	nt
CC1(C)OC(=O)N(CCC(=O)Nc2cccc(F)c2)C1(C)O (centres undefined)
  10.8%	-9.7%	1.6%[46.1 µM]	nt	7.0%[46.1 µM]	nt	1.8%	nt
COc1ccc(Cn2c(C)nc3ccc([N+](=O)[O-])cc3c2=O)cc1
  -15.9%	?	nt	-2.0%	nt	nt	-2.7%	nt
COc1ccc2nc3oc(C(=O)NCc4cccs4)cc3cc2c1
  -3.7%	-12.0%	-25.9%	-0.1%	-4.5%[46.1 µM]	-19.7%	7.1%	1.0%
O=C1NC(=O)C(=Cc2ccc(-c3cc(Cl)ccc3[N+](=O)[O-])o2)C(=O)N1
  2.8%	20µM*	1.4%	1.1%	?	nt	0.5%	nt
COc1cccc(NC(=O)C2COc3ccccc3O2)c1 (centres undefined)
  -9.0%	70.4%[activator]	nt	-12.5%	nt	nt	4.4%	nt
CCCC1=C(C(=O)OCC)C(c2c(C)nn(-c3ccccc3)c2Cl)C(C#N)=C(N)O1 (centres undefined)
  13.8%	?	-18.8%	20.0%	-13.4%	-7.0%	nt	6.1%
CCOc1ccc(C2C3=C(CC(C)(C)CC3=O)N(CC(=O)O)C3=C2C(=O)CC(C)(C)C3)cc1OCC
  -4.2%	-8.3%	nt	-0.5%	nt	nt	?	nt
Cc1ccc(Nc2nc(N)nc(CSc3ncccn3)n2)cc1
  -3.8%	39.2%[activator]	-17.9%	-8.9%	?	3.5%	4.4%	-0.9%

Screening data deposited in PubChem by National Center for Advancing Translational Sciences (NCATS).
